motility = Vibrio cholerae motility inhibitors, OD read-out (AID 588778). one-dose inhibition, %; IC50 in µg/mL for titrated hits. Vibrio cholerae motility, OD read-out; higher % means a stronger effect; test concentration not given here; primary cut-off and reference of the scale not given here; strong numbers were not always called active. 10,000 tested, under 10 active; in the data active means confirmed in a dose series
motility viability = also measured in motility; calls as there; inhibition, %; measured here: bacterial viability at 10 ug/mL;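 higher means fewer living bacteria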
Active calls of the source: *. Some of the compounds tested, so the mix of outcomes need not match the whole.

1) N#C/C(=C\c1ccc(-c2cc(Cl)ccc2Cl)o1)C(=O)N1CCCCC1
  motility = -1% | motility viability = -1

2) CC(NC(=O)c1ccccc1OCC(=O)c1ccc2c(c1)CCCC2)c1ccccc1 (centres undefined)
  motility = -6% | motility viability = -7

3) CC(C)(C)C(=O)COC(=O)c1ccc(CNc2ccccc2)cc1
  motility = -1% | motility viability = -1

4) COc1cccc(/C=C/C2=NN(c3ccc(Cl)c(Cl)c3)C(c3cccc(OC)c3OC)C2)c1OC (centres undefined)
  motility = 27% | motility viability = 14

5) COc1cc(SC)ccc1C(=O)NCCOc1ccccc1Cl
  motility = 13% | motility viability = 3

6) COc1ccc(C(=O)N2CC3(C)C4CCC3(C)C2(C#N)C4)cc1OC (centres undefined)
  motility = -5% | motility viability = -2

7) COCCNC(=S)c1ccc(Br)cc1
  motility = 15% | motility viability = 6

8) COc1cc(NC(=S)NCc2ccc(S(N)(=O)=O)cc2)c(OC)cc1Cl
  motility = -2% | motility viability = -3

9) CC(C)(C)NCC1(O)C2CN3CCN(C2)CC1(c1ccccc1)C3 (centres undefined)
  motility = -5% | motility viability = -3

10) CCCCOc1ccc(NC(=O)c2ccc(I)o2)cc1
  motility = -11% | motility viability = -3

11) Cc1cccc(C(=O)NCc2ccco2)c1[N+](=O)[O-]
  motility = -3% | motility viability = -5

12) O=C1c2ccccc2C(=O)C1C1(C2C(=O)c3ccccc3C2=O)C(=O)Nc2ccccc21
  motility = -1% | motility viability = -3

13) CC(C)(C)CC(C)(C)NC(=O)Cc1ccc(Cl)cc1
  motility = 9% | motility viability = 5

14) CCOc1cc(C#N)cc(I)c1OCC(=O)OC
  motility = 4% | motility viability = -3

15) Cc1cc(=O)[nH]c(SCc2ccc([N+](=O)[O-])cc2)n1
  motility = 4% | motility viability = 2

16) Cc1cc(C)nc(NS(=O)(=O)c2ccc(NC(=S)NC(=O)c3ccccc3Br)cc2)n1
  motility = 17% | motility viability = 3

17) Cc1ccc(NC(=O)c2ccc(-n3cnnn3)cc2)c(C)c1
  motility = 6% | motility viability = 0

18) Cc1nc2ccccc2n1C(F)(F)C(F)F
  motility = 16% | motility viability = 5

19) C=CCNC(=O)C(=O)NC1CCCCC1
  motility = -12% | motility viability = -5

20) Nc1c2c(nc3ccccc13)N(C1CCCCC1)CC2
  motility = 89% | motility viability = 18

21) c1ccc2c(c1)OC1OC2Oc2ccccc21
  motility = 66% | motility viability = 23

22) Cc1ccc(C(CC(=O)O)c2ccc(OC(C)C)cc2)cc1 (centres undefined)
  motility = -18% | motility viability = -4

23) N/C(=N/O)c1cn(Cc2ccccc2Cl)c2ccccc12
  motility = 10% | motility viability = -1

24) O=c1oc(/C=C/c2ccccc2)nc2scc(-c3cccs3)c12
  motility = 11% | motility viability = -3

25) S=C(Nc1ccc2c(c1)OCO2)Nc1ccc(Br)cn1
  motility = -12% | motility viability = -10

26) CSc1ccc(/C=C(/C#N)c2ccc(C(=O)O)cc2)cc1
  motility = 4% | motility viability = 2

27) N/C(=N\O)c1ccc(NC(=O)c2ccc3c(c2)OCO3)cc1
  motility = 1% | motility viability = -6

28) CCOC(=O)N1CCN(c2nc3c([nH]2)c(=O)n(C)c(=O)n3C)CC1
  motility = 1% | motility viability = 2

29) O=C(CN1C(=O)c2ccccc2C1=O)NCC1COc2ccccc2O1 (centres undefined)
  motility = 5% | motility viability = -2

30) Cn1cccc1CNCc1cccnc1
  motility = -1% | motility viability = 0

31) C=CCc1cccc(Cl)c1OCCN1CCOCC1
  motility = 10% | motility viability = -2

32) Cc1ccc(C(=O)O)cc1S(=O)(=O)NCCCC(=O)O
  motility = 0% | motility viability = -5

33) COCCSc1nnc(NC(=O)c2ccc3c(c2)OCO3)s1
  motility = 5% | motility viability = 10

34) CCOC(=O)Nc1cccc(NS(C)(=O)=O)c1
  motility = -5% | motility viability = 6

35) CN1CCN(c2ccc(NC(=O)COc3cccc4ccccc34)cc2)CC1
  motility = -14% | motility viability = -3

36) CCCCNC(c1ccccc1)c1ccncc1 (centres undefined)
  motility = 6% | motility viability = -1

37) COc1ccc(SCc2n[nH]c(=S)n2-c2ccccc2)cc1
  motility = 11% | motility viability = 0

38) O=C(Nc1ccon1)c1ccc(Br)o1
  motility = -2% | motility viability = -3

39) COc1ccc(NC(=O)CN2CCN(c3ccc(C)c(Cl)c3)CC2)cc1
  motility = 3% | motility viability = 3

40) O=C(O)CCN1C(=O)c2cccc3c([N+](=O)[O-])ccc(c23)C1=O
  motility = 10% | motility viability = -6

41) O=C1C2C3C=CC(O3)C2C(=O)N1c1ccccc1I (centres undefined)
  motility = 18% | motility viability = 3

42) C=C(C)c1cccc(C(C)(C)NC(=O)NCc2ccccn2)c1
  motility = 20% | motility viability = 4

43) COc1ccc(-c2c3c(nc4sc(C(=O)c5ccc(OC)c(OC)c5)c(N)c24)CCC3)cc1
  motility = 2% | motility viability = 0

44) COC(=O)c1ccc(NC(=O)CN2CCC(C)CC2)cc1
  motility = 5% | motility viability = 0

45) Nc1ncnc2c1c(-c1ccccc1)c(-c1ccccc1)n2CC1CCCO1 (centres undefined)
  motility = -29% | motility viability = -6

46) O=C(NCCN1CCOCC1)C1CC(=O)N(C2CCCCC2)C1 (centres undefined)
  motility = 1% | motility viability = -2

47) CCOc1ccc(C(=O)NC(=S)Nc2ccc3oc(=O)ccc3c2)cc1Br
  motility = 3% | motility viability = 7

48) Cc1cc(=O)oc2ccc(OCC(=O)Nc3nc(C(C)(C)C)cs3)cc12
  motility = -6% | motility viability = -4

49) CCOC(=O)CNC(=S)NCc1ccc(Cl)cc1
  motility = -1% | motility viability = -8

50) OCc1ccc(Sc2nc3ccccc3[nH]2)o1
  motility = 57% | motility viability = 24

51) O=C(CN1C(=O)c2ccccc2S1(=O)=O)NCCSC1CCCCC1
  motility = 14% | motility viability = 27

52) C#CCOc1ccc(CNCCc2ccccc2)cc1OCC
  motility = 12% | motility viability = 5

53) COC(=O)c1ccccc1NC(=S)Nc1ccccc1C1CC1
  motility = -7% | motility viability = 5

54) CN(C)C(=S)N(C#N)c1nc(N(C)C)nc(N(C)C)n1
  motility = -5% | motility viability = -1

55) O=C(Nc1ccc(-c2cc3ccccc3oc2=O)cc1)c1cc(-n2cnnc2)ccc1Cl
  motility = 9% | motility viability = 7

56) CCn1c(SCC(=O)n2nc(C)cc2C)nnc1-c1ccc2c(c1)OCO2
  motility = 8% | motility viability = -1

57) Cc1cccc(COC(=O)Nc2ccc(NC(=O)c3ccccc3Cl)cc2)c1
  motility = 2% | motility viability = -8

58) Cc1cc(C)c2c(CC(=O)Nc3ccc(Cl)cn3)coc2c1
  motility = 9% | motility viability = 9

59) COc1ccc2c(c1)OCC/C2=N\OC(=O)c1ccccc1I
  motility = -22% | motility viability = -4

60) COc1ccccc1CC(=O)NCC1CCCO1 (centres undefined)
  motility = 2% | motility viability = -2

61) O=C(CSc1nnc(COc2cccc3cccnc23)n1-c1ccccc1)N1CCCCC1
  motility = -2% | motility viability = -6

62) Cc1c(NC(=O)CSc2ccccc2)cccc1C(=O)O
  motility = 4% | motility viability = -3

63) C=CCNc1nc(-c2sc(NC(=O)CC)nc2C)cs1
  motility = 41% | motility viability = 44

64) O=C(COc1ccccc1F)Nc1cccc(C(F)(F)F)c1
  motility = 3% | motility viability = 2

65) CCn1c(Cc2c(C)[nH]c3ccccc23)nnc1SCC(=O)NCc1ccco1
  motility = 14% | motility viability = -2

66) O=S(=O)(c1ccc(N(C(F)F)S(=O)(=O)c2ccc(Cl)cc2)cc1)N1CCOCC1
  motility = 3% | motility viability = -5

67) CCOC(=O)CSc1nc(C)cc(C)n1
  motility = 5% | motility viability = -5

68) Cn1c(CC2C(=O)Nc3ccc(Br)cc32)nc2ccccc2c1=O (centres undefined)
  motility = -3% | motility viability = -1

69) CCCc1nc(NC)nc(-c2ccccc2O)n1
  motility = -12% | motility viability = -4

70) CC(=O)Nc1ccc(OC(F)(F)Cl)cc1
  motility = 16% | motility viability = 10

71) O=C(NCc1ccco1)c1cncc(Br)c1
  motility = 13% | motility viability = 7

72) CCOC(=O)N1CCN(C(=O)c2cnsn2)CC1
  motility = 6% | motility viability = 2

73) COc1ccc(CNc2ncnc(N)n2)cc1
  motility = 5% | motility viability = 2

74) Cc1cc(=O)[nH]c(SCCOCCSc2ccc(Cl)cc2)n1
  motility = 17% | motility viability = 40

75) CC1C(N2CCOCC2)[N+]([O-])=C2CCc3nonc3C21O (centres undefined)
  motility = -1% | motility viability = -10

In another format: results already given
Values run as follows: motility, motility viability
[53] COC(=O)c1ccccc1NC(=S)Nc1ccccc1C1CC1
    -7%, 5
[54] CN(C)C(=S)N(C#N)c1nc(N(C)C)nc(N(C)C)n1
    -5%, -1
[55] O=C(Nc1ccc(-c2cc3ccccc3oc2=O)cc1)c1cc(-n2cnnc2)ccc1Cl
    9%, 7
[56] CCn1c(SCC(=O)n2nc(C)cc2C)nnc1-c1ccc2c(c1)OCO2
    8%, -1
[57] Cc1cccc(COC(=O)Nc2ccc(NC(=O)c3ccccc3Cl)cc2)c1
    2%, -8
[58] Cc1cc(C)c2c(CC(=O)Nc3ccc(Cl)cn3)coc2c1
    9%, 9
[59] COc1ccc2c(c1)OCC/C2=N\OC(=O)c1ccccc1I
    -22%, -4
[60] COc1ccccc1CC(=O)NCC1CCCO1 (centres undefined)
    2%, -2
[61] O=C(CSc1nnc(COc2cccc3cccnc23)n1-c1ccccc1)N1CCCCC1
    -2%, -6
[62] Cc1c(NC(=O)CSc2ccccc2)cccc1C(=O)O
    4%, -3
[63] C=CCNc1nc(-c2sc(NC(=O)CC)nc2C)cs1
    41%, 44
[64] O=C(COc1ccccc1F)Nc1cccc(C(F)(F)F)c1
    3%, 2
[65] CCn1c(Cc2c(C)[nH]c3ccccc23)nnc1SCC(=O)NCc1ccco1
    14%, -2
[66] O=S(=O)(c1ccc(N(C(F)F)S(=O)(=O)c2ccc(Cl)cc2)cc1)N1CCOCC1
    3%, -5
[67] CCOC(=O)CSc1nc(C)cc(C)n1
    5%, -5
[68] Cn1c(CC2C(=O)Nc3ccc(Br)cc32)nc2ccccc2c1=O (centres undefined)
    -3%, -1
[69] CCCc1nc(NC)nc(-c2ccccc2O)n1
    -12%, -4
[70] CC(=O)Nc1ccc(OC(F)(F)Cl)cc1
    16%, 10
[71] O=C(NCc1ccco1)c1cncc(Br)c1
    13%, 7
[72] CCOC(=O)N1CCN(C(=O)c2cnsn2)CC1
    6%, 2
[73] COc1ccc(CNc2ncnc(N)n2)cc1
    5%, 2
[74] Cc1cc(=O)[nH]c(SCCOCCSc2ccc(Cl)cc2)n1
    17%, 40
[75] CC1C(N2CCOCC2)[N+]([O-])=C2CCc3nonc3C21O (centres undefined)
    -1%, -10

Later entries:
76) CC(C)(C)C(=O)NC(=S)Nc1cccc([N+](=O)[O-])c1
  motility = 1% | motility viability = -3

77) C=CCNC(=S)NNC(=O)C(O)c1ccccc1 (centres undefined)
  motility = -19% | motility viability = -7

78) O=C(NCc1ccccn1)Nc1ccccc1C(F)(F)F
  motility = 5% | motility viability = 1

79) Cc1nn(-c2ccccc2)c(C)c1S(=O)(=O)O
  motility = -11% | motility viability = -5

80) O=C(Nc1nnc(COc2cccc(C(F)(F)F)c2)s1)C1CCCCC1
  motility = -4% | motility viability = -2

81) COc1cccc2cc(C(=O)Oc3cc(C)c(CN4CCOCC4)cc3C)c(=O)oc12
  motility = -2% | motility viability = -2

82) O=C(COc1ccccc1)N1CCN(CC2CC=CCC2)CC1 (centres undefined)
  motility = 16% | motility viability = 1

83) COc1cccc(NC(=O)COc2ccccc2I)c1
  motility = -11% | motility viability = -7

84) CCOC(=O)CNC(=O)COc1ccc(Cl)cc1Br
  motility = 3% | motility viability = -1

85) CCC(=O)Nc1ccc(Br)c2ccccc12
  motility = 4% | motility viability = 0

86) COc1nnc(-c2ccc(N3CCOCC3)c(NC(=O)C3CCCCC3)c2)c2ccccc12
  motility = -8% | motility viability = -5

87) O=C(CSc1cccc2cccnc12)Nc1ccccc1C(F)(F)F
  motility = 0% | motility viability = -5

88) CC1CC(=O)NN=C1c1ccc(N(C)C)c([N+](=O)[O-])c1 (centres undefined)
  motility = 2% | motility viability = -1

89) Cn1c(Nc2ccc(F)cc2)nc2ccccc21
  motility = -5% | motility viability = 8

90) O=C1CC(=O)c2sc3nc(-c4ccccc4)cc(-c4ccc(F)cc4)c3c2N1
  motility = -1% | motility viability = 4

Screening results: PubChem BioAssay, Southern Research Institute
